RE007 growth inh: less growth of the S. pombe RE007 Vpr strain | S. pombe RE007 Vpr strain, BacTiter-Glo ATP luminescence, 24 h; control for the full effect not named in the record | 360,000 compounds, 0.21% hits | Potency, µM (highest dose often 92.2 µM), without a hit: at the top dose activity change, negative = less growth; active = well fitted falling curve with a large enough effect; inconclusive = small, poorly fitted or top-dose-only effect; inactive = no such curve, though single readings can be large or run the other way;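 note: % is set by controls: 0 for no effect and ±100 for the full control effect; nearly all actives have a fitted effect of over 50% in size; the assay follows cell death caused by Vpr and the record does not say whether a fall means rescue or toxicity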
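Fission yeast strain RE007, carrying one chromosomally integrated HIV-1 vpr copy, was seeded at OD 0.01 in PMG+AL medium with 23 nL pinned compound. After 24 h at 30 °C and 99% humidity, viability was read by BacTiter-Glo luminescence.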
SARS PLpro yeast: SARS-CoV PLP inhibition in yeast; Potency, µM (top dose mostly 32.9 µM), inactives show at the highest dose activity, positive = growth rescue; 330,000 compounds, 0.19% hits; S. cerevisiae expressing SARS-CoV PLpro, growth rescue; control for the full effect not named in the record; active means well fitted rising curve with a large enough effect; inconclusive means small, poorly fitted or top-dose-only effect; inactive means no such curve, though single readings can be large or run the other way; note: 0% is about no effect; nearly all actives have a fitted effect of over 55% in size; growth read by luminescence after 48 h
StopGo reporter: FMDV 2A StopGo reporter, luciferase signal. human cells with a luciferase reporter of 2A StopGo recoding; control for the full effect not named in the record. Potency, µM (titrated, usually from 57.9 µM), for inactives: top-dose signal change, negative = less light. 410,000 compounds, 1.2% hits; active = well fitted falling curve with a large enough effect; inconclusive = small, poorly fitted or top-dose-only effect; inactive = no such curve, though single readings can be large or run the other way; tested in HEK293T cells; note: % is set by controls: 0 for no effect and ±100 for the full control effect; nearly all actives have a fitted effect of over 45% in size; luciferase light after 4 h
* = called active by the depositor; ? = inconclusive; [ ] = another dose, or the depositor's remark. Potency is the fitted concentration of half-maximal effect. Only part of the results is shown; the hit share may differ from the screen's.

Values in the order – RE007 growth inh | SARS PLpro yeast | StopGo reporter
OCC[C@H]1C[C@@H](O)[C@H](O)[C@]2(Cc3ccccc3CO2)O1
 : 33% | -2% | 0%
O=C(CNc1cccc(C(F)(F)F)c1)Nc1cccc(S(=O)(=O)N2CCCC2)c1
 : 6% | 7% | -21%
COc1cccc(NC(=O)COC(=O)c2ccc(C)c(S(=O)(=O)N3CCCCC3)c2)c1
 : -3% | -1% | -10%
CC(=O)c1ccc(N2CCN(C(=O)CCCn3c(=O)[nH]c4ccc(Br)cc4c3=O)CC2)cc1
 : 5% | 0% | ?
Cc1ccsc1C(=O)OCC(=O)Nc1cccc(F)c1
 : -5% | -2% | 40%[activator]
CC1CCC2(CC1)NC(=O)N(CC(=O)N1CCN(C(=O)c3ccco3)CC1)C2=O (stereo not drawn)
 : -9% | 5% | -11%
COc1ccc(-c2cc(C(=O)Nc3cc(C)on3)no2)cc1OC
 : -13% | 2% | 2%
O=C(O)Cc1ccc(NS(=O)(=O)c2ccccc2Br)cc1
 : 0% | 2% | 1%
O=C(Nc1ccc(F)c(F)c1)c1ccccc1
 : -18% | -2% | 41%[activator]
O=c1[nH]c(Cl)ccc1CN1CCOCC1
 : 2% | -3% | -3%
O=C(CSc1ccccc1)NCC(c1ccco1)N1CCCCC1 (stereo not drawn)
 : -4% | -1% | 11%
CCOc1cccc(/C=N/NC(=S)NCCN2CCOCC2)c1O
 : 13% | -1% | -1%
CN(Cc1ccccc1)C(=O)CN1CCN(S(=O)(=O)c2ccc(Cl)c(Cl)c2)CC1
 : 3% | 2% | ?
Cc1ccc(S(=O)(=O)OCCC2=CC(=O)CCN2Cc2ccccc2)cc1
 : 15% | 11% | -9%
CC(OC(=O)c1ccccc1NCCO)C(=O)Nc1ccnn1C(C)C (stereo not drawn)
 : -7% | -2% | -17%
CC(C)(C)NC(=O)NC(=O)CSc1ncccn1
 : 8% | ? | 29%
O=C(NNC(=O)c1cccs1)c1ccccc1
 : -1% | -1% | 27%
CN(C)S(=O)(=O)c1ccc(C(=O)NCC2(N3CCOCC3)CCCCC2)cc1
 : -2% | -3% | -23%
CCOc1ccc2c(c1)C(N(CCN1CCOCC1)C(=O)Nc1ccc(OC)cc1OC)CC(C)(C)O2 (stereo not drawn)
 : -10% | 5% | 33%[activator]
Cc1cc(-c2ccccc2)n[nH]1
 : 2% | 1% | 18%
COCCN(C(=S)Nc1cc(C)cc(C)c1)C(C)c1cccs1 (stereo not drawn)
 : -12% | 4% | 19%
CC1CCN(S(=O)(=O)c2ccc(C(=O)N3CCCC3C(=O)O)cc2)CC1 (stereo not drawn)
 : 3% | -6% | -22%
CCCCCCCNC(=O)C1(CC2CC(c3ccccc3)=NO2)CCN(C(=O)OC(C)(C)C)CC1 (stereo not drawn)
 : 3% | 0% | 57%[activator]
C[C@]12c3[nH]c4ccccc4c3CCN1C(=O)C(CC(=O)NCCCn1ccnc1)C[C@@H]2C(=O)N1CCCCC1 (stereo partly drawn)
 : -16% | 0% | -12%
CC(C)NC(=O)Nc1ccc2c(c1)C(=O)N([C@H](C)CO)C[C@@H](C)[C@@H](CN(C)C(=O)NC1CCCCC1)O2
 : 25% | 5% | -2%
O=C(Nc1ccccc1C(=O)NC1CC1)c1ccccc1F
 : -2% | 3% | 2%
CC(OC(=O)c1ccc([N+](=O)[O-])o1)C(=O)NC1CCCCC1C (stereo not drawn)
 : -7% | 6% | -22%
Nn1c(SCC(=O)Nc2cccc(Br)c2)nnc1C1CC1
 : -13% | 0% | 7%
O=C(c1ccc(NC(=S)NCc2ccc(Cl)cc2)cc1)N1CCCCC1
 : 8% | 0% | 20%
CCSc1nnc(NC(=O)/C=C/c2ccco2)s1
 : -3% | 1% | 34%[activator]
COc1ccc(C2=NOC(Cn3nc(C(=O)NCc4ccc(C)cc4)cc3-c3ccccc3)C2)cc1 (stereo not drawn)
 : -12% | -1% | 0%
CCCn1c(N)c(N(CCOC)C(=O)CSCC(=O)Nc2ccc(C)cc2)c(=O)[nH]c1=O
 : -14% | -2%[6.58 µM] | -4%
CCc1ccc(C(=O)C(C)OC(=O)Cn2[nH]c(=O)c3ccccc3c2=O)cc1 (stereo not drawn)
 : 16% | 2% | -14%
O=C(COC(=O)/C=C/c1cccc(F)c1)NC(=O)NCc1ccccc1
 : -3% | -5% | -3%
O=C(Nc1ccc(N2CCCCCC2)cc1)c1ccc[nH]1
 : ? | 2% | 26%
CC(C)CCN(C(=S)Nc1cccc(F)c1)C(C)c1cccs1 (stereo not drawn)
 : -6% | 3% | 13%
COc1ccc(-c2ccc(=O)n(Cc3ccc([N+](=O)[O-])cc3)n2)cc1
 : -12% | -13% | -11%
CC12CN3CC(C)(CN(C1)C3c1ccc(F)cc1)C2 (stereo not drawn)
 : 11% | -2% | -19%
CCOc1ccccc1N1CCN(CC(=O)N(C2CCCC2)C2CCS(=O)(=O)C2)CC1 (stereo not drawn)
 : -26% | 7% | -20%
CCN(CC)C(=O)[C@H]1C[C@H](CC(=O)NCCCn2ccnc2)C(=O)N2CCc3c([nH]c4ccc(Cl)cc34)[C@]12C
 : -5% | 5% | -15%
CC(NC(=O)c1ccco1)C(=O)N1CCN(c2cccc(Cl)c2)CC1 (stereo not drawn)
 : 17% | 1% | -13%
CS(=O)(=O)N(CC(=O)O)c1cc(C(F)(F)F)ccc1Cl
 : -5% | 3% | -24%
O=c1cc(N2CCCCC2)c(-c2ccccc2)nn1Cc1cccc(F)c1
 : -2% | -19% | -18%
O=C(CC1C[C@H](C(=O)N2CCOCC2)[C@@]2(CCC3CCCC3)c3[nH]c4ccccc4c3CCN2C1=O)NCCCn1ccnc1 (stereo partly drawn)
 : 6% | 0% | 37%[activator]
COc1ccc2cc(C[C@@H]3CC[C@@H](CNC(N)=O)O3)ccc2c1
 : -14% | 13% | 32%[activator]

Results in SARS PLpro yeast (3 entries from above):
SMILES	SARS PLpro yeast
OCC[C@H]1C[C@@H](O)[C@H](O)[C@]2(Cc3ccccc3CO2)O1	-2%
O=C(COC(=O)/C=C/c1cccc(F)c1)NC(=O)NCc1ccccc1	-5%
CCOc1cccc(/C=N/NC(=S)NCCN2CCOCC2)c1O	-1%

Going on with the list:
Values in the order – RE007 growth inh | SARS PLpro yeast | StopGo reporter
Cc1ccc(C(=O)Nc2sc3c(c2C(=O)O)CCC(C)C3)o1 (stereo not drawn)
 : -12% | -4% | 21%
O=C(OCc1nnc(-c2ccccc2)o1)c1ccc(CO)cc1
 : ? | 4% | -7%
COc1cccc2c(N/N=C/c3ccco3)cc(C)nc12
 : -20% | 0% | 0%
COC(=O)[C@]1(Cc2ccccc2)N[C@H](CN(C)C(C)=O)[C@@H]2C(=O)N(C)C(=O)[C@@H]21
 : -12% | -1% | 0%
OCC[C@H]1C[C@H](O)[C@@H](O)[C@]2(CCc3ccccc3O2)O1
 : 6% | 2% | -12%
O=C(CCCN1C(=O)/C(=C/c2ccccc2)SC1=S)Nc1ccc(O)cc1
 : 8% | 0% | -1%
CO[C@@H]1C=CC23c4cc5c(cc4CO[C@]2(O)CN(C)[C@H]3C1)OCO5 (stereo partly drawn)
 : -1% | -4% | -6%
CCNc1nc(SCCOc2ccc(Cl)cc2Cl)nc(N(C)C)n1
 : -7% | 0% | -28%
COc1cc(C[C@@H](C)[C@@H](C)Cc2ccc(O)c(OC)c2)ccc1O
 : ? | 7% | -22%
COc1cccc(SCc2noc(C(=O)NC(C)C)c2C(=O)NC(C)C)c1
 : 5% | -11% | -13%
CC(CCc1ccccc1)NC(=O)COC(=O)c1cccn1C (stereo not drawn)
 : -1% | -11% | -6%
Cc1nc2ccc(NS(=O)(=O)c3c(F)cc(F)cc3Br)cc2s1
 : -23% | -4% | -9%
C[C@H](CO)N1C[C@H](C)[C@@H](CN(C)Cc2ccncc2)Oc2c(NC(=O)CCCCCC(=O)Nc3ccccc3N)cccc2C1=O
 : -25% | 1% | 49%[activator]
O=C(NC1CCCC1)C1CCCN1C(=O)Oc1ccccc1 (stereo not drawn)
 : -14% | -2% | -12%
Cc1csc(NC(=O)CSc2ccc(-c3ccccn3)nn2)n1
 : -16% | 7% | 1%

Single records, as listed above. Order of screens: RE007 growth inh, SARS PLpro yeast, StopGo reporter
`CC(CCc1ccccc1)NC(=O)COC(=O)c1cccn1C` (stereo not drawn) as listed: -1%, -11%, -6%
`COc1cc(C[C@@H](C)[C@@H](C)Cc2ccc(O)c(OC)c2)ccc1O` as listed: ?, 7%, -22%

Next structures follow.
Values in the order – RE007 growth inh | SARS PLpro yeast | StopGo reporter
CN(c1ccccc1)S(=O)(=O)c1ccc(Cl)c(C(=O)NC2=NCCS2)c1
 : -9% | 2% | -21%
C(#Cc1c(-c2ccsc2)sc2ccccc12)c1ccsc1
 : 19% | -24% | -15%
CCOc1ccccc1N1CCN(C(=O)[C@@H]2CCCN2C2=NS(=O)(=O)c3ccccc32)CC1
 : -2% | -2% | 38%[activator]
O=C(COc1ccc(-c2nnco2)cc1)NC1CCS(=O)(=O)C1 (stereo not drawn)
 : 5% | 8% | 0%
COc1cc(/C=C/C(=O)OCC(=O)NNC(=O)c2cc(Cl)ccc2OC)ccc1O
 : 4% | 0% | -18%
CCOc1ccc(NC(=O)COC(=O)c2ccc3c(c2)OCO3)cc1
 : -5% | -3% | -16%
CC1CCc2c(sc3ncnc(SCC(=O)N(C)C4CCS(=O)(=O)C4)c23)C1 (stereo not drawn)
 : -2% | -4% | -6%
COc1ccc(C(=O)N2CCN(S(=O)(=O)c3ccc4c(c3)OCCO4)CC2)cc1OC
 : -16% | 1% | -24%
O=C(Nc1cccc(S(=O)(=O)NC2=NCCC2)c1)c1ccc(=O)[nH]c1
 : 11% | -9% | -19%
CC(C)c1ccc(Nc2nnc(SCC(=O)Nc3ncc(S(=O)(=O)c4ccc([N+](=O)[O-])cc4)s3)s2)cc1
 : -9% | 0% | 30%[activator]
COc1ccc([N+](=O)[O-])cc1NS(=O)(=O)c1cc(C(=O)NCc2cccnc2)ccc1Cl
 : -4% | -2% | 44%[activator]
O=C(CNS(=O)(=O)c1ccc2c(c1)OCCCO2)N1CCN(Cc2ccccc2)CC1
 : -4% | -4% | -20%

Filtered by structure: the entries above with a tert-butyl group (2)
Values in the order – RE007 growth inh | SARS PLpro yeast | StopGo reporter
CC(C)(C)NC(=O)NC(=O)CSc1ncccn1
 : 8% | ? | 29%
CCCCCCCNC(=O)C1(CC2CC(c3ccccc3)=NO2)CCN(C(=O)OC(C)(C)C)CC1 (stereo not drawn)
 : 3% | 0% | 57%[activator]

Source: PubChem BioAssay
